Compound activity: PubChem, National Center for Advancing Translational Sciences (NCATS)
AmpC inh no det: Promiscuous and Specific Inhibitors of AmpC Beta-Lactamase (assay without detergent) | 71,000 tested, 1.8% active | AmpC nitrocefin hydrolysis, absorbance 480 nm, no detergent; potencies from a single point are estimates | Potency, µM (titrated, usually from 28.7 µM), for inactives: top-dose activity change, negative = inhibition; active = falling curve, for most hits resting on a single point; inconclusive = weak or doubtful change; inactive = flat or rising curve; further: % of control where 0% means no effect; about half of the hits show no inhibition at the top dose; a quarter of the inactives give rising signals
Target sequence (P00811 whole entry, looked up): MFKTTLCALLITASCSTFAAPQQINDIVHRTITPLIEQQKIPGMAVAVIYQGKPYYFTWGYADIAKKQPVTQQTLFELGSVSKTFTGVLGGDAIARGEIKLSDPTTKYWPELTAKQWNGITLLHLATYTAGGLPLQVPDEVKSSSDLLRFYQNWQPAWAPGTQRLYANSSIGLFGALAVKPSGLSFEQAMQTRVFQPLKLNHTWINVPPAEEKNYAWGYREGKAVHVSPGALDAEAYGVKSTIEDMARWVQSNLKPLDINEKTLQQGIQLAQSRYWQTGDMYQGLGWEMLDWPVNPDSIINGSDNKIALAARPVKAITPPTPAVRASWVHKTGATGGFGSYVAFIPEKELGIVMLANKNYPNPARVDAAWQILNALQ
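Enzyme, pH 7.0 phosphate. Compound titrations were pre-incubated with AmpC for 15 min at room temperature before nitrocefin (stock 800 uM) addition; product formation was recorded at 480 nm every 20 s for 4 min.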
Numbers without * were called inactive; [ ] = another dose, or the depositor's remark. Potency means the concentration at half of the fitted maximal effect. Some of the compounds tested; rates above refer to the full screens.

SMILES	AmpC inh no det
CCC1C2CN(C(C)=O)CC=C2C(C#N)=C(N)C1(C#N)C#N (stereo unspecified)	-16.2%
CCOC(=O)CSc1nc2nc(C)cc(C)n2n1	11.8%
Cc1ccc(NC(=O)c2ccco2)c(NC(=O)CN2C(=O)c3ccccc3C2=O)c1	4.1%
CCCCCC(=O)Nc1ccccc1N1CCN(c2ccccc2)CC1	15.5%
COCC(=O)N1CCC2(CCCN(Cc3ccncc3)C2)CC1	13.5%
CCCC(C(=O)NCc1ccco1)N(C(=O)CNS(=O)(=O)c1ccccc1)C1CCCC1 (stereo unspecified)	24.0%
Fc1cccc(-c2cc3nc4c(c(N5CCN(c6cnccn6)CC5)n3n2)CCCC4)c1	9.6%
CCN(CC)c1ccc(C2C(C(=O)OCCOC(C)C)=C(C)NC3=C2C(=O)CCC3)cc1 (stereo unspecified)	85.7%
CS(=O)(=O)NCc1nnc(SCC(=O)NC2CCCCC2)n1-c1ccc(F)cc1	16.3%
C[C@@H](C(=O)NCCF)[C@H]1C[C@]1(C)[C@H](NC(=O)OCc1ccccc1)c1ccccc1	88.2%
O=C1c2cccnc2C(=O)N1CO	-15.5%
c1ccc(CCNc2ncnc3c2cnn3-c2ccccc2)cc1	15.4%
COc1cc2nc(-c3cccs3)oc(=O)c2cc1OC	35.9%
O=C(O)c1ccc(NS(=O)(=O)c2ccc(Cl)cc2)cc1	-0.8%
CCN1CCCC1CNC1=NCCCCC1 (stereo unspecified)	-14.4%
COC(=O)Nc1ccc(Oc2ccccc2)cc1	2.1%
C=CCc1ccc(O)c(OC)c1	14.8%
Cc1cn(CC[C@H](N)C(=O)O)c(=O)[nH]c1=O	9.1%[5.75 µM]
COc1ccc(C2CC(c3ccc(F)cc3)Nc3nc(N)nn32)cc1OC (stereo unspecified)	17.6%
Cc1nn2c3c(cnc2c1-c1ccccc1)C(=O)CC(c1ccco1)C3 (stereo unspecified)	-0.4%
COC(=O)[C@@]1(Cc2ccc(F)cc2)[C@H]2c3cc(C(=O)N4CCCC4)n(Cc4c(CO)[nH]cc(C)c4=O)c3C[C@H]2CN1C(=O)c1ccccc1	154.6%
O=C(Nc1cnn(C23CC4CC(CC(C4)C2)C3)c1)c1cnn2cccnc12	83.1%
Cc1ccc(C)c(NC(=O)CSc2nnc(-c3ccccc3C)o2)c1	14.1%
O=C(Nn1cnc2ccccc2c1=O)c1ccccc1Cl	6.3%
CCOc1ccc(S(=O)(=O)N2CCN(C)CC2)c(C)c1C	51.9%
O=C(C1CC1)N(CCc1ccccc1)Cc1nc2ccccc2c(=O)[nH]1	-8.5%
N#Cc1cccc(-c2nccc(NCc3cccs3)n2)c1	9.9%
CCC(C)(C)n1nnnc1C(c1cc2cccc(C)c2[nH]c1=O)N1CCN(C(=O)c2ccco2)CC1 (stereo unspecified)	120.5%
CCc1c(C)nc(/N=C(/NC(=O)c2ccccc2)Nc2ccccc2OC)[nH]c1=O	-6.3%
Cn1c(C(=O)NCc2ccccn2)cc2c(=O)n(C)c3ccccc3c21	31.3%
COc1ccc(S(=O)(=O)N2CCN(Cc3ccc4c(c3)OCO4)CC2)c2ccccc12	-3.9%
CCOC(=O)c1ccccc1NC1c2ccccc2C(=O)N1C1CCN(C(=O)OCC)CC1 (stereo unspecified)	137.3%
COc1ccc(OC)c(C2=NOC(C(=O)Nc3cccnc3)C2)c1 (stereo unspecified)	13.0%
COC(=O)c1c(C#N)c(N)nc2c1CCC2	-23.8%
CCOC(=O)C1=C(O)C(=O)N(c2ccc(S(N)(=O)=O)cc2)C1c1ccc(OC)cc1OC (stereo unspecified)	-9.5%
O=C(O)CCc1ccc(-c2cccs2)n1NC(=O)c1ccco1	-2.2%
O=C(CCS(=O)(=O)c1cccc2nonc12)Nc1cccc2c1CCCC2	-2.5%
O=C(C1CCN(S(=O)(=O)N2CCOCC2)CC1)N1CCc2ccccc21	12.3%
Cc1ccc(-c2noc(CN3CCN(Cc4ccccc4)CC3)n2)cc1	-3.0%
Cc1cc(C)n(C(=O)CNC(=O)COc2ccccc2)n1	3.5%
CCc1c(C)nc2cc(-c3cccs3)[nH]n2c1=O	-14.4%
O=CNc1ccccc1	1.2%
COCCNc1nc(SCC(=O)N2CCN(c3ccccc3OC)CC2)nc2ccccc12	95.6%
CC1C(=O)C(C)C(c2ccco2)NC1c1ccco1 (stereo unspecified)	-2.8%
Cc1c(C(=O)OC2CCCC2C)[nH]c2c1C(=O)CCC2 (stereo unspecified)	-1.1%

Reprinted from the listing, 7 compounds:
SMILES	AmpC inh no det
COc1ccc(S(=O)(=O)N2CCN(Cc3ccc4c(c3)OCO4)CC2)c2ccccc12	-3.9%
CCOC(=O)c1ccccc1NC1c2ccccc2C(=O)N1C1CCN(C(=O)OCC)CC1 (stereo unspecified)	137.3%
COc1ccc(OC)c(C2=NOC(C(=O)Nc3cccnc3)C2)c1 (stereo unspecified)	13.0%
COC(=O)c1c(C#N)c(N)nc2c1CCC2	-23.8%
CCOC(=O)C1=C(O)C(=O)N(c2ccc(S(N)(=O)=O)cc2)C1c1ccc(OC)cc1OC (stereo unspecified)	-9.5%
O=C(O)CCc1ccc(-c2cccs2)n1NC(=O)c1ccco1	-2.2%
O=C(CCS(=O)(=O)c1cccc2nonc12)Nc1cccc2c1CCCC2	-2.5%

(further entries)
SMILES	AmpC inh no det
COc1ncc2nc(CCc3ccccc3)c(=O)n(Cc3ccc(F)cc3)c2n1	18.8%
CC(C)(C)C1CCc2[nH]nc(C(=O)O)c2C1 (stereo unspecified)	-0.1%
CCC(=NCCN1CCOCC1)c1c(O)n(-c2ccccc2C)c(=O)[nH]c1=O	-3.2%
CCN1CCN(Cc2nc3c(c(=O)n(C)c(=O)n3C)n2CC(=O)c2ccccc2)CC1	-4.9%
O=C(CC1SC2=NCCN2C1=O)Nc1ccc(Br)cc1 (stereo unspecified)	7.8%
COc1ccccc1-c1nccc(NCc2ccccc2)n1	40.8%
CSc1nnc(C2CCCN2)n1C (stereo unspecified)	-1.7%
COCCNC(=O)CSc1nc2ccccc2c(=O)n1CCCC(=O)NCc1ccccc1	56.3%
COc1cc(OC)cc(C(=O)NC2CCSC2=O)c1 (stereo unspecified)	-9.9%
Cc1occc1-c1nnc(SCC(=O)NC(=O)NC(C)C)n1N	0.9%
CC(C)c1nc2cc3ccccc3cc2[nH]1	-11.8%
CN1[C@@H]2CCC[C@H]1CC(=O)C2	-8.2%[12.8 µM]
COc1ccc(N(C(=O)COc2ccccc2)C2C=CS(=O)(=O)C2)c(OC)c1 (stereo unspecified)	29.1%
COc1ccc(NC(=O)C2CCCN(S(=O)(=O)c3cccc4cccnc34)C2)cc1OC (stereo unspecified)	55.1%
N#CCCN(C1CCCCC1)S(=O)(=O)CCOc1ccccc1	9.3%
COc1cc(Br)cc(CN2CCN(C)CC2)c1O	1.5%
O=S(=O)(CC(CN1CCCC1)N1CCCC1)c1ccc2ccccc2c1 (stereo unspecified)	18.1%
CCOC(=O)c1c(NC(C)=O)sc2c1CCCNC2=O	4.7%
C[C@H](NC(=O)C1(c2ccccc2)CCN(C(=O)[C@H]2CSCN2C(=O)OC(C)(C)C)CC1)C(=O)O	26.1%
COC(=O)CSc1nc2ccccc2n1CC(=O)N(C(C)C)C(C)C	12.4%
C=CCN(C(=O)CNC(=O)c1ccco1)C(C(=O)NC1CCCCC1)c1ccc(OC)cc1OC (stereo unspecified)	84.9%
C1CCOC1	-2.6%
FC(F)(F)c1ccccc1-c1cc(NCc2cccnc2)ncn1	16.5%
CC(=O)Nc1ccc(S(=O)(=O)NCc2ccc(C(=O)NCCN3CCCCCC3)cc2)cc1	-10.2%
COc1ccc(-c2nc3cnc(Nc4ccccc4)nc3n(C[C@H]3CCCO3)c2=O)cc1	-2.7%
CCN(CC)S(=O)(=O)c1ccc(F)c(C(=O)NCCCN2CCOCC2)c1	11.3%
COc1ccc2[nH]cc(CCNc3cc(-c4ccccc4Cl)ncn3)c2c1	-15.0%
O=C(c1ccccc1)c1coc2ccc(O)c(Cl)c12	-15.6%
CC(C)(C)n1nnnc1C(c1ccccc1F)N(Cc1ccco1)CC1CCCO1 (stereo unspecified)	74.5%
CC12CCC(C(=O)N3CCN(c4ncccn4)CC3)(c3nc4ccccc4nc31)C2(C)C (stereo unspecified)	116.7%

In the list so far, 5 have a COOH group.
SMILES	AmpC inh no det
O=C(O)c1ccc(NS(=O)(=O)c2ccc(Cl)cc2)cc1	-0.8%
Cc1cn(CC[C@H](N)C(=O)O)c(=O)[nH]c1=O	9.1%[5.75 µM]
O=C(O)CCc1ccc(-c2cccs2)n1NC(=O)c1ccco1	-2.2%
CC(C)(C)C1CCc2[nH]nc(C(=O)O)c2C1 (stereo unspecified)	-0.1%
C[C@H](NC(=O)C1(c2ccccc2)CCN(C(=O)[C@H]2CSCN2C(=O)OC(C)(C)C)CC1)C(=O)O	26.1%

The list continues:
SMILES	AmpC inh no det
O=S1(=O)CCN2C(=N1)SC1=C2CCN(Cc2ccccc2)C1	-2.5%
Cc1ccccc1-c1nc(Nc2ccncc2)c2ccccc2n1	-8.3%
C=CCc1cccc2cc(NC(C)=O)c(=O)oc12	0.6%
CCN(CC)CCNC(=O)c1ccccc1C(=O)c1ncc[nH]1	-6.6%
Cc1cc(S(=O)(=O)Nc2ccccc2C(=O)O)ccc1Cl	-8.4%
NC(=O)C1CCN(C(c2ccccc2F)c2nnnn2Cc2ccco2)CC1 (stereo unspecified)	9.8%
O=C(O)[C@H](Cc1ccccc1)N1Cc2ccccc2C1=O	-3.4%
CC(C)c1ccc(O)c(NC(=O)c2cncc(Br)c2)c1	-8.3%
COc1ccc2[nH]cc(CCNc3ccnc(-c4ccccc4C)n3)c2c1	-4.2%
O=C1CN2CCN(CC2)CC(=O)Nc2ccc(cc2)S(=O)(=O)c2ccc(cc2)NC(=O)CN2CCN(CC2)CC(=O)Nc2ccc(cc2)S(=O)(=O)c2ccc(cc2)N1	8.7%[5.75 µM]
COC(=O)Cn1nc(-c2ccccc2)c2ccccc21	31.0%
CS(=O)(=O)N(CC(=O)N1CCCCCC1)c1ccc2c(c1)OCCO2	15.2%
Cc1ccc(NS(=O)(=O)c2ccc3c(c2)oc(=O)n3C)cc1F	11.1%
Cc1oc(-c2cccs2)[n+]([O-])c1C	-3.1%
COc1ccc(C(=O)NCCC(C)C)cc1S(=O)(=O)N1CCOCC1	5.0%
Cc1csc(NC(=O)CSc2nnc(-c3ccco3)n2C)n1	8.1%
CC(=O)Nc1ccc(N2C(=O)CC(N3CC(C)OC(C)C3)C2=O)cc1 (stereo unspecified)	2.2%
Cc1ccnc(NC(=O)CCC2CCCCC2)c1	-3.1%
CC12C=CC3(CN(Cc4ccccc4)C(=O)C3C1C(=O)NCc1ccco1)O2 (stereo unspecified)	3.2%
COc1ccc(-c2nc(SC)n(C(=O)c3ccco3)n2)cc1	-7.9%
Cc1cccc(OCc2nnc(SCC(=O)N3CCc4ccccc43)n2C)c1	104.3%
CN(Cc1ccco1)C(=O)C(Cc1ccccc1)NS(=O)(=O)c1ccc2c(c1)CCC(=O)N2 (stereo unspecified)	3.98µM*[single pt active]
CCOC(=O)c1sc(NC(=O)CSc2ncccn2)c(C#N)c1C	3.8%
CC(C)OC(=O)CC(=O)c1sc2nc3c(cc2c1N)CN(C)CC3	70.1%
CCOc1ccc(-n2c(SC)nc3c(c2=O)SCC3)cc1	3.7%
CCc1cc(C(=O)OC)c(NC(=O)CC2NCCNC2=O)s1 (stereo unspecified)	12.3%
CCSc1nnc(NC(=O)CSc2nnc(Cc3cccn3C)n2CCc2ccccc2)s1	35.4%
C=CCCCCCCC=C	-7.5%
Cc1noc(C)c1COC(=O)c1ccc2c(c1)OCCO2	13.1%
CCCN(CCC)C(=O)CSc1nc2n[nH]c(C)c2c(=N)n1-c1ccc(OC)cc1	103.7%
O=C(COc1ccc(Cl)cc1)Nc1ccc(Cl)cn1	-11.4%
CCCCCCn1c(SCCCC)nc2c1c(=O)[nH]c(=O)n2C	17.4%
CN(C)CC(C)(C)NS(=O)(=O)c1ccc(Cl)cc1	-6.5%
Cc1ccc(-c2oc3ncnc(N)c3c2-c2ccc(C)cc2)cc1	25.7%
CCC(C)OC(=O)n1ccc(C(=O)Nc2nccs2)n1 (stereo unspecified)	-2.4%
COC(=O)N1CCC2(CCCN(c3ccccn3)C2)CC1	25.3%
COc1ccc(OC)c(S(=O)(=O)N(C)CC(=O)Nc2ccc3c(c2)OCO3)c1	-2.9%
CCOC(=O)N1CCN(C(=O)CSCC(=O)N=c2sc3ccccc3n2C)CC1	75.5%
CC1(C)CC(=O)C(C=NCCc2ccccn2)=C(O)C1	7.3%
O=S(=O)(c1ccccc1)N1CCC2(CCCN(c3cccc(-c4ccccc4)c3)C2)CC1	3.3%
CCCCOC(=O)C1C2C=C[C@]3(CN(C(C)c4ccc(OC)cc4)C(=O)[C@H]13)O2 (stereo partly specified)	40.1%
COc1cccc(-c2oc3ccccc3c(=O)c2O)c1	19.3%
Cc1cccc(NC(=O)N(Cc2nc3ccccc3c(=O)[nH]2)C2CCCC2)c1	-7.4%
O=C(CNC(=O)c1ccc(Cl)cc1Cl)NCC(=O)Nc1ccccc1N1CCOCC1	46.9%
CC1=CCP(=O)(c2ccccc2)C1 (stereo unspecified)	-8.7%
Cc1ccc(C)c2nc(N3CCCC3)c(C#N)cc12	10.8%
O=C(C(Cc1ccccc1)n1cccc1)N1CCCCC1 (stereo unspecified)	25.9%
COCCn1c(=O)c(-c2cccc(C#N)c2)nc2cnc(N3CCN(C)CC3)nc21	68.7%
Cc1nc2ncnn2c(C)c1CCC(=O)N1CCc2ccccc21	15.4%
CCCCSc1nc(CCC)cc(=O)[nH]1	0.3%
COC(=O)CSCc1nc2ccccc2[nH]c1=O	3.98µM*[single pt active]
c1ccc(CCc2nc(-c3cccnc3)no2)cc1	5.1%
CCC[N+](=O)[O-]	-2.8%
Cc1noc(NS(=O)(=O)c2ccc(NC(=O)CSc3nc4c(cc3C#N)CCCC4)cc2)c1C	-20.2%
Cc1cc(C)c2[nH]c(=O)c(CN(C(=O)C3CCCO3)C3CCCC3)cc2c1 (stereo unspecified)	0.3%
